VCAM-1 rise: enhancers of VCAM-1 display on endothelial cells, cell-based, plate reader, pooled HUVEC, TNFa stimulus (AID 455) | 10,000 tested, 0.2% active | HUVEC TNFa-induced VCAM-1 immunofluorescence, plate reader; numbers were filed only for top-ranked candidate wells | augmentation, % at 5 µM;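 active = a compound raising TNF-alpha-driven VCAM-1 surface staining, with its hit status upheld on visual or statistical review; inactive = the rest, including hits rejected on review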;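 note: 0% = TNFa with vehicle and 100% = strongest image-checked hit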
26S disassembly: blocks ATP-dependent breakdown of the yeast 26S proteasome; 24,000 tested, 0.2% active; inhibition of disassembly, % (test concentration not listed); anti-FLAG beads, GFP-proteasome disassembly, flow cytometry;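 active = above 40%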;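 note: plate controls were ATP control with full disassembly for no effect and ATP-gamma-S intact proteasomes for full effect; higher percent means more bead fluorescence retained so stronger block of disassembly; stock transfer was 100 nL into about 10 µL; wells with too few beads may also be inconclusive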
The depositor's hits bear a star; i = inactive; x = not tested or not shown.

canonical_smiles,VCAM-1 rise,26S disassembly
O=C(COC(=O)c1cccc(S(=O)(=O)N2CCc3ccccc32)c1)NC1CCS(=O)(=O)C1 (stereo not given),i,1.6
Nn1cnnc1SCC(=O)Nc1ccc2c(c1)OCCO2,i,-0.8
Cc1cc(C)c2c(n1)SCC(=O)N2CC(=O)NCCC1=CCCCC1,x,-0.4
O=C(NCCCN1CCOCC1)c1cc(-c2ccc(Cl)cc2)on1,i,-0.8
CCOC(=O)C1CCCN(c2c(NCCCN(CC)c3ccccc3)c(=O)c2=O)C1 (stereo not given),x,1.1
CCOC(=O)C1CCCN(c2c(NCCCN(C)Cc3ccccc3)c(=O)c2=O)C1 (stereo not given),x,1.3
COc1ccc(C(=O)CCC(=O)N2CCN(c3ccc(N4CCOCC4)nn3)CC2)cc1,x,1.7
COc1cccc(C2=NOC(C(=O)NCC3CCCO3)C2)c1 (stereo not given),x,1.9
CCOc1ccc(S(=O)(=O)n2c(C)nc3ccccc32)cc1,i,-0.9
Cn1c(SCC(=O)NCC2CCCO2)nc2c([nH]c3ccccc32)c1=O (stereo not given),x,-0.1
CCOc1nc(-c2ccccc2)ccc1-c1noc(-c2cccnc2)n1,i,-3.0
CCCCc1ccc(NC(=O)N[C@H](C(=O)O)C(C)CC)cc1 (stereo not given in full),i,-0.4
Nc1nc2c(ncn2COCCO)c(=O)[nH]1,i,-0.4
Cc1ccc(CN2C(=O)CCC2C(=O)NC2CCCC2)cc1 (stereo not given),i,0.6
CCOC(=O)C1=C(CS(=O)(=O)c2ccc(F)c(C)c2)NC(=O)NC1c1ccc(O)c(O)c1 (stereo not given),i,-1.9
CCCN(CCC)CCNC(=O)Cn1cnc2sc(C)c(S(=O)(=O)N3CCOCC3)c2c1=O,x,-1.1
CCOC(=O)c1cc2oc(C)cc2n1CC(=O)OC1CCCCC1,i,-0.9
Cc1ccc2nc(-c3ccccn3)cc(C(=O)N3CCN(c4ncccn4)CC3)c2c1,i,-6.9
CC(C(=O)NC(=O)NC1CCCCC1)N1CCN(c2ccccn2)CC1 (stereo not given),i,3.7
Cc1ccnc(N2C(=O)c3ccccc3C2Nc2ccc3c(c2)OCCO3)c1 (stereo not given),x,0.3
COc1ccccc1N1CCN(C(=O)c2oc3cc(C)c(C)cc3c2C)CC1,i,-5.1
CCCSc1nc(C)c(-c2csc(C(C#N)=C3CCCC3)n2)cc1C#N,x,14.1
COc1cccc(C2CC(=O)Nc3cc4c(cc32)OCCO4)c1OC(C)C (stereo not given),i,0.2
O=C(CCNS(=O)(=O)c1cccs1)Nc1nccs1,x,0.2
Cc1ccc(NC(=O)c2oc3ccccc3c2NC(=O)c2ccc3c(c2)OCO3)cc1,x,-0.8
COc1ccc(N2Cc3cccc(C(=O)NC(C)CCc4ccco4)c3C2=O)cc1 (stereo not given),x,3.2
CCC(C)(C(=O)NC1CCCCC1)N(C(=O)c1cnccn1)c1c(C)n(C)n(-c2ccccc2)c1=O (stereo not given),x,-1.2
CCOC(=O)c1nnn(-c2nonc2N)c1-c1cccs1,x,0.5
CCNS(=O)(=O)c1ccc(NC(=O)c2cc(C(F)(F)F)nn2C)cc1,x,1.8
CC(C)OC(=O)CSc1nc2cccnc2n1C1CCCCC1,i,-0.3

4 of the compounds above, field by field.
Compound: CCCSc1nc(C)c(-c2csc(C(C#N)=C3CCCC3)n2)cc1C#N
  VCAM-1 rise: x
  26S disassembly: 14.1

Compound: CCC(C)(C(=O)NC1CCCCC1)N(C(=O)c1cnccn1)c1c(C)n(C)n(-c2ccccc2)c1=O (stereo not given)
  VCAM-1 rise: x
  26S disassembly: -1.2

Compound: Cc1ccc(NC(=O)c2oc3ccccc3c2NC(=O)c2ccc3c(c2)OCO3)cc1
  VCAM-1 rise: x
  26S disassembly: -0.8

Compound: O=C(CCNS(=O)(=O)c1cccs1)Nc1nccs1
  VCAM-1 rise: x
  26S disassembly: 0.2

(more compounds)
canonical_smiles,VCAM-1 rise,26S disassembly
COc1ccc(NC(=O)c2oc3ccccc3c2NC(=O)COc2ccccc2OC)c(OC)c1,x,-0.7
CCOc1ccc(-c2nc(N)ncc2-c2ccccc2)c(O)c1,i,0.0
CS(=O)(=O)c1ccc2nc(NC(=O)c3cccs3)sc2c1,i,-1.1
CCN(CC)C(=O)c1sc(NC(=O)c2ccco2)c(C#N)c1C,i,0.5
CCN1CCN(C(c2cccc(OC)c2)c2sc3nc(C)nn3c2O)CC1 (stereo not given),x,0.7
Cc1ccc(Cn2nc(C)c(NC(=O)c3cc(-c4ccc5c(c4)OCO5)on3)c2C)cc1,x,0.3
CC(C)C(NS(=O)(=O)c1cccs1)C(=O)NCc1ccc2c(c1)OCO2 (stereo not given),x,0.9
COc1ccc(S(=O)(=O)Cc2ccc(C(=O)N3CCN(C4CCCCC4)CC3)o2)cc1,x,-1.9
CCOP(=O)(c1ccc(N(C)C)cc1)C(O)c1c(Cl)cccc1Cl (stereo not given),i,2.1
O=C(CN(Cc1ccc2c(c1)OCO2)C(=O)CNS(=O)(=O)c1ccccc1)NCc1ccco1,i,0.0

Overlap with the part before: 7 compounds, then new ones.
canonical_smiles,VCAM-1 rise,26S disassembly
CCN(CC)C(=O)c1sc(NC(=O)c2ccco2)c(C#N)c1C,i,0.5
CCN1CCN(C(c2cccc(OC)c2)c2sc3nc(C)nn3c2O)CC1 (stereo not given),x,0.7
Cc1ccc(Cn2nc(C)c(NC(=O)c3cc(-c4ccc5c(c4)OCO5)on3)c2C)cc1,x,0.3
CC(C)C(NS(=O)(=O)c1cccs1)C(=O)NCc1ccc2c(c1)OCO2 (stereo not given),x,0.9
COc1ccc(S(=O)(=O)Cc2ccc(C(=O)N3CCN(C4CCCCC4)CC3)o2)cc1,x,-1.9
CCOP(=O)(c1ccc(N(C)C)cc1)C(O)c1c(Cl)cccc1Cl (stereo not given),i,2.1
O=C(CN(Cc1ccc2c(c1)OCO2)C(=O)CNS(=O)(=O)c1ccccc1)NCc1ccco1,i,0.0
CCCOc1ccc(C(=O)NCCCn2ccnc2)cc1,x,-0.9
CCOC(=O)N1CCN(C(=O)CC(=O)Nc2ccc3nc4n(c(=O)c3c2)CCCCC4)CC1,x,-0.7
CC(C)(C)OC(=O)N1CCC(c2c(C(=O)O)cnn2-c2ccccc2Cl)CC1,x,-0.8
CC1(C)CC(=O)C(C=Nc2ccc3c(c2)OCO3)=C(O)C1,i,0.1
CCCCOCCCNC(=O)c1cccs1,i,2.0
O=C(CCn1nc(-c2ccccc2)ccc1=O)NCCCN1CCCCCC1,x,1.2
COc1ccccc1CN1C(=O)CCC1(C)C(=O)NCc1cccnc1 (stereo not given),x,-1.1
CCCC(c1nnnn1Cc1ccc(OC)cc1)N1CCN(c2ccccc2OC)CC1 (stereo not given),i,-0.6
CN(C)/C=N/c1c(C#N)nnn1Cc1ccccc1,x,-0.1
COc1ccc(-n2c(=O)[nH]cc(C(=O)Nc3ccc(NC(C)=O)cc3)c2=O)cc1,i,-0.7
COc1cc2[nH]c(=O)n(CCCCCC(=O)NCCCN3CCC(C)CC3)c(=O)c2cc1OC,x,-2.4
COCCNC(=O)Cc1cn(C)c2ccccc12,x,1.6
Cc1c(NC(=O)c2ccc(=O)oc2)c(=O)n(-c2ccccc2)n1C,i,-0.5
O=C(CN1C(=O)CCS(=O)(=O)c2ccccc21)Nc1cccc(F)c1,i,0.5
O=C(CN(Cc1ccco1)C(=O)CNS(=O)(=O)c1ccc(F)cc1)NCCc1ccccc1,i,0.3
COc1cccc(-c2nn(C)c3sc(C(=O)NCc4ccc(C)o4)cc23)c1,x,0.4
O=C1CN=C(Nc2cccc(C(F)(F)F)c2)N1C1CCCC1,i,-2.3
O=C(NCc1nnc(SCC(=O)N2CCCC2)o1)c1c(F)cccc1Cl,x,1.7
CCOC(=O)c1cccc(NC(=O)c2cnc3ccccc3n2)c1,x,-0.5
CC(C)(C)NCc1cc2ccccc2[nH]c1=O,i,1.2
Cc1nc2cc(C(=O)NCCN3CCOCC3)ccc2n1-c1ccc(F)cc1F,x,-3.0
CCN1CCN(Cc2ccc(NC(=O)Nc3ccc(OC)cc3)cc2)CC1,x,-0.3
CCCC(=O)NC(C)C(c1cccs1)N1CCN(C)CC1 (stereo not given),x,-1.9
CN(C)S(=O)(=O)c1ccc(C(=O)N2CCCC2c2nc3ccccc3s2)cc1 (stereo not given),i,0.6
Cc1noc(/C=C/c2ccco2)c1S(=O)(=O)N1CCC(C(=O)N2CCc3ccccc3C2)CC1,x,41.6*
O=C(Nc1ccc(F)cc1Cl)c1ccc2c(=O)n3c(nc2c1)CCCCC3,x,2.5
COc1ccc(CN2CCCC(C(=O)N(C)Cc3ccccc3)C2)cc1OC (stereo not given),x,0.1
CC(=O)c1c(C)oc2ccc(NS(=O)(=O)c3ccc(O)c(C(=O)O)c3)cc12,i,-0.9
CCOC(=O)c1sc(=S)n(-c2cc(OC)ccc2OC)c1N,x,-0.6
Cc1cc(C)cc(Nc2ncc3c(n2)CC(c2ccco2)CC3=O)c1 (stereo not given),i,3.8

Profiles, looked up by structure. Screens in order: VCAM-1 rise | 26S disassembly
`CCCC(=O)NC(C)C(c1cccs1)N1CCN(C)CC1` (stereo not given) in the list: x | -1.9
`Cc1nc2cc(C(=O)NCCN3CCOCC3)ccc2n1-c1ccc(F)cc1F` in the list: x | -3.0
`CN(C)S(=O)(=O)c1ccc(C(=O)N2CCCC2c2nc3ccccc3s2)cc1` (stereo not given) in the list: i | 0.6
`CCOC(=O)c1sc(=S)n(-c2cc(OC)ccc2OC)c1N` in the list: x | -0.6

(further entries)
canonical_smiles,VCAM-1 rise,26S disassembly
CCN(CCCNC(=O)CNC(=O)Cn1cnc2ccccc2c1=O)c1ccccc1,x,2.3
Nc1cccc2c1C(=O)N(c1ccccc1)C2=O,i,2.5
CCOC(=O)C1=C(C)NC(C)=C(C(=O)OC)C1c1cccc([N+](=O)[O-])c1 (stereo not given),i,0.1
O=C(NCCc1ccccc1)C1CCN(S(=O)(=O)c2cccnc2)CC1,x,0.1
Cc1c(C(=O)N2CCCC2)oc2c1-c1[nH]ncc1CC2,x,2.1
CCC(=O)N1CCc2cc(S(=O)(=O)NCCC(=O)Nc3ccccc3C)ccc21,x,-2.8
COc1ccc(CNC(=O)c2cc(-c3cccs3)on2)cc1,x,0.3
O=C(CCN1CCN(c2ccc(Cl)cc2)CC1)Nc1ccccc1F,x,-0.5
CCn1cc(C(=O)OCC(=O)OC2CC(C)CCC2C(C)C)c(=O)c2ccc(C)nc21 (stereo not given),i,1.6
CC(=O)c1ccc(N2CCN(C(=O)c3cc(C)on3)CC2)cc1,i,0.1
COc1ccccc1NC(=O)C(O)C(O)C(=O)Nc1ccccc1OC (stereo not given),i,-0.7
Cc1cccc(-n2nnc(C(=O)NCc3ccc4c(c3)OCO4)c2N)c1,x,-1.2
O=C(CCNS(=O)(=O)c1cccs1)NCc1ccco1,x,0.2
c1ccc(-c2noc(-c3ccc4ccccc4c3)n2)cc1,x,-1.1
Cc1cc2ccccc2c(=O)n1CC(=O)NCC(=O)N1CCN(c2ccccc2F)CC1,x,-0.8

Screens: PubChem, several laboratories

The list is partial (hit frequency here may not be typical).
